Source: PubChem BioAssay (several laboratories)
HIV Env fusion: blocks HIV Env-driven cell-cell fusion | HeLa-JRFL Env/CEM21 cell fusion, luciferase | actives 1.1% (n = 360,000) | inhibition, % at 12.3 µM;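 active = mean replicate inhibition score of at least 50 and every replicate individually at or above 50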;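 note: 0% = plate neutral controls and 100% = maraviroc near 300 nM; one replicate is shown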
Rce1 inh: inhibitors of yeast Ras-converting enzyme. calls only. Q03530. yeast membranes, quenched prenylated peptide cleavage fluorescence. actives 0.27% (n = 290,000);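 active = fall in fluorescence gain of 50% or more versus controls, with final raw signal at or below 3038400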;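 note: plate controls were neutral control wells for no effect and wells lacking membranes for full effect; tested at 10 µM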
Target sequence (Q03530 whole entry, looked up): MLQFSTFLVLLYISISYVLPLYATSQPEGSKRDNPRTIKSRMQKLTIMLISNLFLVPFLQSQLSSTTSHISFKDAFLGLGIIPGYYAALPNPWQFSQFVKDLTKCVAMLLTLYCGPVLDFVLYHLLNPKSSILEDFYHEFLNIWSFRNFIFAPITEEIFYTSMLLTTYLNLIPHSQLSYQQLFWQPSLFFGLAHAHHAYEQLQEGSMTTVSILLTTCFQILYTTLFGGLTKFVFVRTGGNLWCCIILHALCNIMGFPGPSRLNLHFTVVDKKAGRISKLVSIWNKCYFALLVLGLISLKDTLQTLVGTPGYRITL
MT1-MMP act inh: inhibitors of human MT1-MMP activation | P50281 | HT1080 RFP-PRO-GFP cells, GFP/RFP ratio fluorescence, overnight; percent of plate control window, DMSO zero | GFP/RFP ratio change, % at 20 µM | actives 0.061% (n = 360,000) | AID 651647;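 active = GFP/RFP ratio change of at least 30% with cell ATP level not reduced by more than half and red fluorescence within 50% of control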; note: strong numbers were not always called active
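Assay system: HT1080 cells carrying an RFP-PRO-GFP reporter | Dosing: Single dose of 20 µM compound, 1% DMSO final | Incubation: Cells overnight before dosing, compound overnight, 37 °C, 5% CO2 | Evaluation: GFP/RFP fluorescence ratio | Control set: DMSO and RFP-L50D-GFP cell wells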
CSC inhib: blocks cancer stem cells | AID 2717 | cancer stem cell-like cells viability, luminescence | actives 1.1% (n = 300,000) | inhibition, % at 7.5 µM;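 active = mean at 75% or more and at least half the replicates too; tested in HMLE shEcad cells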;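 note: 0% = median of negative and 100% = median of positive control wells; the first replicate is given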
PABP FP inh: blocks human PABP binding to poly(A) RNA | fluorescence polarization | actives 1% (n = 290,000) | inhibition, % at 35 µM | P11940;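 active = 50% or more with normal probe brightness, or confirmed in later tests; about a fifth of its hits are not listed in these tables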;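 note: calls also rest on retests at 20 µM and on dose response follow-up; controls were probe without protein and protein plus probe with vehicle; some compounds called inactive have numbers as strong as hits; many hits fall short of the cut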
Target sequence (P11940 whole entry, looked up): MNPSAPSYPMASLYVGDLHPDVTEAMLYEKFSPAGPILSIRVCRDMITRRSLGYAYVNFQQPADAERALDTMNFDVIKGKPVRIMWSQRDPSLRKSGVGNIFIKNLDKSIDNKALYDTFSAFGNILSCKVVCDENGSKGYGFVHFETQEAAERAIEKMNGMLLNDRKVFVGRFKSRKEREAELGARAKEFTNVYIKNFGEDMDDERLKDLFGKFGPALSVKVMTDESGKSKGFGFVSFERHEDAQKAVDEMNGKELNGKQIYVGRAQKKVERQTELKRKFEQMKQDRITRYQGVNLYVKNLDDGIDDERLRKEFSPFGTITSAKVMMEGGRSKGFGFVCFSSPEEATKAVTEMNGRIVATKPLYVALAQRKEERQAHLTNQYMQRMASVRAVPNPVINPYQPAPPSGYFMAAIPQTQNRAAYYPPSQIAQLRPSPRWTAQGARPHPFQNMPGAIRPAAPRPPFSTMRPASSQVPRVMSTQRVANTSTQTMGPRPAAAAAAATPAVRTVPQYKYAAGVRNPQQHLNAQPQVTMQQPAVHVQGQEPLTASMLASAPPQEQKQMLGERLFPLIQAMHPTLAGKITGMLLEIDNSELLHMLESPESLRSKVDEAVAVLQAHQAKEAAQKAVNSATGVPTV
eIF4H FP inh: inhibitors of RNA binding by human eIF4H | Q15056 | eIF4H fluorescence polarization binding assay | inhibition, % at 35 µM | actives 0.94% (n = 290,000) | AID 2012;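 active = 50% or more with normal probe brightness, or confirmed in later tests; about a fifth of its hits are not listed in these tables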;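 note: calls also rest on retests at 20 µM and on dose response follow-up; 0% = protein and probe with vehicle and 100% = probe without protein; strong numbers were not always called active; many hits fall short of the cut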
Yeast UUG start: yeast start codon fidelity modulation; S. cerevisiae UUG-firefly luciferase reporter, luminescence/redox ratio; activity score, % at 18.7 µM; actives 0.13% (n = 350,000);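 active = replicate mean at a twofold rise or more, about +100% in these data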;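 note: firefly luciferase made from a UUG start codon reports start codon fidelity; reporter light over untreated wells divided by growth signal over untreated wells; some hits fall short of that in this replicate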
eIF4H FP inh retest: further read-out of eIF4H FP inh, marked with its call; inhibition, %; compound at 20 µM; confirmation average;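 mean of two retest wells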
PABP FP inh retest: recorded beside PABP FP inh, whose call it bears; inhibition, %; compound at 20 µM; confirmation repeats;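 mean of two retest wells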
MT1-MMP act inh RFP: also measured in MT1-MMP act inh; calls as there; RFP signal change, %; measured here: RFP expression control read;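 0 = vehicle wells; hits needed this value within 50% of zero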
* = called active by the depositor. These rows are one share of the data. The share of hits here may be higher or lower than overall.

Results for COC(=O)[C@H](CC(C)C)NC(=O)CCc1nnc(COc2ccccc2)o1 ?
HIV Env fusion: 2.5; Rce1 inh: inactive; MT1-MMP act inh: -5.0; CSC inhib: 5.5; PABP FP inh: 11.2; eIF4H FP inh: 6.6; MT1-MMP act inh RFP: 6.7

Results for CCOCCCNS(=O)(=O)c1ccc(OC)c(Cl)c1Cl ?
Rce1 inh: inactive; MT1-MMP act inh: 4.3; CSC inhib: 1.3; PABP FP inh: 26.3; eIF4H FP inh: 0.4; MT1-MMP act inh RFP: 3.8

How did NC(=O)Cn1nnc(-c2ccc(NC(=O)c3ccc(F)cc3)cc2)n1 do in these assays?
HIV Env fusion: 5.7; Rce1 inh: inactive; MT1-MMP act inh: 1.3; CSC inhib: 2.5; PABP FP inh: -13.1; eIF4H FP inh: 0.0; MT1-MMP act inh RFP: 5.6

How did COc1cc(C(c2c(C)[nH][nH]c2=O)c2c(C)[nH][nH]c2=O)cc(Cl)c1O do in these assays?
HIV Env fusion: -10.7; Rce1 inh: inactive; MT1-MMP act inh: 0.1; CSC inhib: -6.2; PABP FP inh: -7.2; eIF4H FP inh: -3.9; Yeast UUG start: -8.0; MT1-MMP act inh RFP: 3.6

Results for O=C(COC(=O)c1ccccc1Nc1ccccc1)c1ccccc1 ?
HIV Env fusion: -30.7; Rce1 inh: inactive; MT1-MMP act inh: 7.4; CSC inhib: 41.1; PABP FP inh: 7.2; eIF4H FP inh: 2.0; Yeast UUG start: -15.0; MT1-MMP act inh RFP: -3.7

How did CC(C)Cc1ccc(S(=O)(=O)Nc2ccccn2)cc1 do in these assays?
HIV Env fusion: -12.1; Rce1 inh: inactive; MT1-MMP act inh: -3.1; CSC inhib: -13.1; PABP FP inh: -7.1; eIF4H FP inh: 0.9; MT1-MMP act inh RFP: 3.0

Results for CCOC(=O)C(=CNNc1ccsc1C(=O)OC)C(=O)OCC ?
HIV Env fusion: 15.9; Rce1 inh: inactive; MT1-MMP act inh: -1.5; CSC inhib: -2.2; PABP FP inh: -2.8; eIF4H FP inh: 5.3; MT1-MMP act inh RFP: 1.9

What do the screens show for `NC(=O)C[C@@H]1NC(=O)[C@H](CCC(=O)O)NC(=O)c2cc([N+](=O)[O-])cc(I)c2OCC[C@@H](C(N)=O)NC1=O`?
Rce1 inh: inactive; MT1-MMP act inh: 1.6; CSC inhib: -8.8; PABP FP inh: 5.5; eIF4H FP inh: 7.8; Yeast UUG start: 10.2; MT1-MMP act inh RFP: 2.6

Results for Cc1[nH]c(=O)[nH]c(=O)c1S(=O)(=O)Nc1ccc(Br)cc1F ?
HIV Env fusion: 10.2; Rce1 inh: inactive; MT1-MMP act inh: 1.8; CSC inhib: 5.2; PABP FP inh: 4.0; eIF4H FP inh: -9.7; Yeast UUG start: 3.2; MT1-MMP act inh RFP: 3.6

Results for CCCc1nc(SCC(=O)NCc2ccco2)c2c(=O)n(C)c(=O)n(C)c2n1 ?
HIV Env fusion: -2.4; Rce1 inh: inactive; MT1-MMP act inh: -2.7; CSC inhib: 3.6; PABP FP inh: 13.7; eIF4H FP inh: 10.8; Yeast UUG start: -6.0; MT1-MMP act inh RFP: -7.3

How did O=[N+]([O-])c1ccc(N(CC(O)CN2CCCCC2)S(=O)(=O)c2ccccc2)cc1 (centres undefined) do in these assays?
HIV Env fusion: -15.6; Rce1 inh: inactive; MT1-MMP act inh: 0.1; CSC inhib: -1.1; PABP FP inh: 8.4; eIF4H FP inh: 2.3; Yeast UUG start: -10.7; MT1-MMP act inh RFP: 4.5

Results for COc1ccc(CCNc2c(N)n(Cc3ccccc3)c(=O)[nH]c2=O)cc1OC ?
Rce1 inh: inactive; MT1-MMP act inh: -10.1; CSC inhib: 6.7; PABP FP inh: 54.8; eIF4H FP inh: 40.9; Yeast UUG start: -9.4; eIF4H FP inh retest: 4.2; PABP FP inh retest: 8.7; MT1-MMP act inh RFP: -0.5

Results for CN(C)S(=O)(=O)N(CC(=O)N1CCN(c2ccccc2)CC1)c1ccccc1 ?
HIV Env fusion: -6.6; Rce1 inh: inactive; MT1-MMP act inh: -1.7; CSC inhib: 8.7; PABP FP inh: 10.7; eIF4H FP inh: -1.1; Yeast UUG start: -20.7; MT1-MMP act inh RFP: 0.7

Results for COCC(C)n1c(SCC(=O)NC2CCCCC2C)nc2ccccc2c1=O (centres undefined) ?
HIV Env fusion: -11.2; MT1-MMP act inh: -5.9; CSC inhib: 4.5; Yeast UUG start: -10.5; MT1-MMP act inh RFP: -2.0

Results for O=C(CCCc1ccccc1)N1CCc2ccccc21 ?
Rce1 inh: inactive; MT1-MMP act inh: 2.3; PABP FP inh: -2.4; eIF4H FP inh: -15.2; Yeast UUG start: -23.0; MT1-MMP act inh RFP: -0.3

What do the screens show for `CCOc1ccc(NC(=O)C2CCN(S(=O)(=O)c3cccnc3)CC2)cc1`?
Rce1 inh: inactive; MT1-MMP act inh: -0.5; PABP FP inh: -6.0; eIF4H FP inh: 0.8; Yeast UUG start: -25.9; MT1-MMP act inh RFP: 0.8

What do the screens show for `NC(=O)COC(=O)c1cccc(NS(=O)(=O)/C=C/c2ccccc2)c1`?
Rce1 inh: inactive; MT1-MMP act inh: -1.6; PABP FP inh: -12.5; eIF4H FP inh: 4.9; Yeast UUG start: -15.2; MT1-MMP act inh RFP: -1.8

What do the screens show for `COc1ccc(Cc2c(-c3ccccc3)nc3ccc(Cl)cn23)c(C)c1`?
HIV Env fusion: -61.9; MT1-MMP act inh: -6.7; Yeast UUG start: 2.1; MT1-MMP act inh RFP: 0.6

Results for COc1ccc([C@H]2C[C@H](O)[C@@H](n3cc(COC(=O)c4ccccc4)nn3)CN2C(=O)C2CCCCC2)cc1 ?
HIV Env fusion: -29.2; MT1-MMP act inh: 5.2; Yeast UUG start: -6.8; MT1-MMP act inh RFP: 2.1

What do the screens show for `COc1ccccc1NS(=O)(=O)c1cc2c3c(c1)CCN3C(=O)CC2`?
HIV Env fusion: -3.0; Rce1 inh: inactive; MT1-MMP act inh: 1.9; CSC inhib: -6.1; Yeast UUG start: 24.2; MT1-MMP act inh RFP: 2.6

5 consecutive compounds already listed:
Results for COC(=O)[C@H](CC(C)C)NC(=O)CCc1nnc(COc2ccccc2)o1 ?
HIV Env fusion: 2.5; Rce1 inh: inactive; MT1-MMP act inh: -5.0; CSC inhib: 5.5; PABP FP inh: 11.2; eIF4H FP inh: 6.6; MT1-MMP act inh RFP: 6.7

Results for CCOCCCNS(=O)(=O)c1ccc(OC)c(Cl)c1Cl ?
Rce1 inh: inactive; MT1-MMP act inh: 4.3; CSC inhib: 1.3; PABP FP inh: 26.3; eIF4H FP inh: 0.4; MT1-MMP act inh RFP: 3.8

How did NC(=O)Cn1nnc(-c2ccc(NC(=O)c3ccc(F)cc3)cc2)n1 do in these assays?
HIV Env fusion: 5.7; Rce1 inh: inactive; MT1-MMP act inh: 1.3; CSC inhib: 2.5; PABP FP inh: -13.1; eIF4H FP inh: 0.0; MT1-MMP act inh RFP: 5.6

How did COc1cc(C(c2c(C)[nH][nH]c2=O)c2c(C)[nH][nH]c2=O)cc(Cl)c1O do in these assays?
HIV Env fusion: -10.7; Rce1 inh: inactive; MT1-MMP act inh: 0.1; CSC inhib: -6.2; PABP FP inh: -7.2; eIF4H FP inh: -3.9; Yeast UUG start: -8.0; MT1-MMP act inh RFP: 3.6

Results for O=C(COC(=O)c1ccccc1Nc1ccccc1)c1ccccc1 ?
HIV Env fusion: -30.7; Rce1 inh: inactive; MT1-MMP act inh: 7.4; CSC inhib: 41.1; PABP FP inh: 7.2; eIF4H FP inh: 2.0; Yeast UUG start: -15.0; MT1-MMP act inh RFP: -3.7

(cont.)
What do the screens show for `CCc1ccc(OCC(=O)Nc2ccc(N3CCN(C(=O)c4ccccc4)CC3)cc2)cc1`?
Rce1 inh: inactive; MT1-MMP act inh: 5.4; CSC inhib: 28.1; PABP FP inh: -7.6; eIF4H FP inh: -5.4; Yeast UUG start: -0.4; MT1-MMP act inh RFP: -3.0

What do the screens show for `Cc1ccccc1CN1CCN(C2CCC2)CC1CCO` (centres undefined)?
HIV Env fusion: -7.5; Rce1 inh: inactive; MT1-MMP act inh: -1.3; CSC inhib: -3.6; PABP FP inh: 5.9; eIF4H FP inh: -5.8; Yeast UUG start: -5.0; MT1-MMP act inh RFP: 2.3

How did COc1ccc(C(=O)Nn2c(C3CCC3)nc3ccccc3c2=O)c(OC)c1 do in these assays?
Rce1 inh: inactive; MT1-MMP act inh: 4.4; PABP FP inh: 5.2; eIF4H FP inh: -1.0; MT1-MMP act inh RFP: 4.0

How did Cc1ccc(NC(=O)CCN2CCCCC2)cc1 do in these assays?
HIV Env fusion: 25.5; Rce1 inh: inactive; MT1-MMP act inh: 0.6; CSC inhib: -14.7; PABP FP inh: 1.7; eIF4H FP inh: -6.5; Yeast UUG start: -1.1; MT1-MMP act inh RFP: 6.4

Results for CCC(=O)Nc1cccc(-c2nnc(SCC(=O)c3ccccc3)n2C)c1 ?
HIV Env fusion: 2.0; Rce1 inh: inactive; MT1-MMP act inh: -2.0; CSC inhib: 5.8; PABP FP inh: -0.7; eIF4H FP inh: -3.4; MT1-MMP act inh RFP: -0.6

How did O=C(COc1ccc(Cl)cc1Cl)NC1CCSC1=O (centres undefined) do in these assays?
Rce1 inh: inactive; MT1-MMP act inh: 0.6; CSC inhib: 0.9; PABP FP inh: -8.2; eIF4H FP inh: -3.1; Yeast UUG start: -22.7; MT1-MMP act inh RFP: -3.6

Results for CC1CCCC(C)N1C(=O)Cn1nnc(-c2ccc([N+](=O)[O-])cc2)n1 (centres undefined) ?
HIV Env fusion: -14.5; Rce1 inh: inactive; MT1-MMP act inh: 6.4; CSC inhib: -8.1; PABP FP inh: 8.1; eIF4H FP inh: 0.4; Yeast UUG start: -1.4; MT1-MMP act inh RFP: -4.1

Results for COC(=O)c1cnc(N)s1 ?
HIV Env fusion: 42.3; MT1-MMP act inh: -0.3; Yeast UUG start: -3.2; MT1-MMP act inh RFP: 3.6

Results for O=C(CSc1n[nH]c(-c2ccccn2)n1)Nc1ccccc1F ?
HIV Env fusion: -4.9; Rce1 inh: inactive; MT1-MMP act inh: 2.9; CSC inhib: 1.8; PABP FP inh: -2.9; eIF4H FP inh: 13.1; Yeast UUG start: -17.1; MT1-MMP act inh RFP: -0.5

What do the screens show for `CCC1C/C(=C/c2cccs2)C(=O)/C(=C/c2cccs2)C1` (centres undefined)?
HIV Env fusion: -6.3; Rce1 inh: inactive; MT1-MMP act inh: -16.9; CSC inhib: 5.8; PABP FP inh: -11.0; eIF4H FP inh: 71.6; Yeast UUG start: -10.6; eIF4H FP inh retest: 3.8; PABP FP inh retest: -3.3; MT1-MMP act inh RFP: -6.8

What do the screens show for `CC(C)(C)C(=O)NC(=S)NNC(=O)c1ccc(Cl)cc1Cl`?
HIV Env fusion: 21.9; Rce1 inh: inactive; MT1-MMP act inh: -10.0; CSC inhib: 18.0; PABP FP inh: 7.4; eIF4H FP inh: 7.7; Yeast UUG start: -28.6; MT1-MMP act inh RFP: -18.2

How did CN(C(=O)COC(=O)Cc1ccc(Cl)cc1)C1CCCCC1 do in these assays?
HIV Env fusion: -9.4; MT1-MMP act inh: -3.7; CSC inhib: 3.0; Yeast UUG start: -13.4; MT1-MMP act inh RFP: 3.5

What do the screens show for `Cc1cc(C(=O)NNC(=S)NCc2ccccc2)cs1`?
HIV Env fusion: 5.8; Rce1 inh: inactive; MT1-MMP act inh: -7.1; CSC inhib: -12.2; PABP FP inh: 1.7; eIF4H FP inh: -6.0; Yeast UUG start: -27.3; MT1-MMP act inh RFP: 0.0
